Bioassay records: PubChem BioAssay, National Center for Advancing Translational Sciences (NCATS)
Rango release inh: prevents RanGTP from dissociating the Rango-importin beta complex | Potency, µM (series often up to 46.1 µM), for inactives: top-dose activity change, negative = inhibition | O95149+P62826 | Biochemical FRET Rango-importin beta, RanGTP-induced dissociation | actives 0.071% (n = 340,000); active means falling FRET ratio curve, often poorly fitted, with flat reads before Ran was added; inconclusive means other falling curves, or compound fluorescence or quenching; inactive means flat or rising ratio curve;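 further: potency means the concentration at half of the fitted maximal effect; % of control where 0% means no effect; nearly all actives have a fitted effect of over 45% in size; -100% = wells without RanGTP and RCC1; the record marks most hits as doubtful in a second field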
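Compounds sat 5 min at room temperature with 0.1 uM Rango biosensor plus 0.25 uM importin beta, then FRET pre-read. RanGTP-RCC1 (0.6 uM Ran, 2mM GTP, 0.2 uM RCC1) added for 45 min, and the CFP/YFP post-read measured blocked complex dissociation.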
miR-21 FLuc: raises the signal of a miR-21 reporter | HeLa miR-21 FLuc reporter, luciferase, 48 h | Potency, µM (highest dose often 38.3 µM), for inactives: top-dose reporter change, positive = more light | 340,000 tested, under 10 active | AID 2288; active = well fitted rising curve with a large enough effect; inconclusive = small, poorly fitted or top-dose-only effect; inactive = no such curve, though single readings can be large or run the other way;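 further: % of control where 0% means no effect; miR-21 action dims this reporter so a rising signal means less miR-21 action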
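Using DMEM plus 10% FBS, HeLa miR-21-FLuc cells are incubated with test compounds (final up to about 40uM) for 48 hours; firefly luciferase signal is then imaged following reagent-mediated lysis.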
GLA inh pH 4.5: alpha-galactosidase A (human) inhibition, pH 4.5; P06280; AID 1467; activity change, negative = inhibition, % at 105 µM; purified enzyme, 4-MU-alpha-Gal fluorescence, pH 4.5; 230,000 tested, under 10 active; inconclusive = small, poorly fitted or top-dose-only inhibition, or a rising curve; inactive = flat fitted curve, though single readings scatter; no compound was filed as active;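 further: 0% = full activity with enzyme and -100% = basal without enzyme; dose as in the result columns while the protocol names 77 µM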
Target sequence (P06280 whole entry, looked up): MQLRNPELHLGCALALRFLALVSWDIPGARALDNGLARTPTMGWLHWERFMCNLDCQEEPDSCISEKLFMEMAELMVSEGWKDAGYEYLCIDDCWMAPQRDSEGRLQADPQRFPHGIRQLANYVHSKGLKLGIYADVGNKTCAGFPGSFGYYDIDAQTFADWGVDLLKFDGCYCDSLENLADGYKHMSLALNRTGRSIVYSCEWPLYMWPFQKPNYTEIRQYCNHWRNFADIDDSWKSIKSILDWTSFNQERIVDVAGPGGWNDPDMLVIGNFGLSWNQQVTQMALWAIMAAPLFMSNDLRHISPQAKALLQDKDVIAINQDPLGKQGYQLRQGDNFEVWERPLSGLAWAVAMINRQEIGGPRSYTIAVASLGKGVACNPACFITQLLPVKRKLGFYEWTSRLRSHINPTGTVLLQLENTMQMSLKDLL
Rango-impB inh: inhibitors of Rango-importin beta complex formation; Q14974; Rango CFP/YFP FRET sensor + importin beta, 45 min; Potency, µM (top dose mostly 92.2 µM), without a hit: top-dose inhibition of complex formation; actives 0.031% (n = 340,000); AID 540263; active = rising FRET ratio curve, often small or poorly fitted; inconclusive = mostly compound fluorescence or quenching in the first reads; inactive = flat curves in all reads;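 further: potency means the concentration at half of the fitted maximal effect; 0% = DMSO wells and 100% = buffer wells lacking importin beta; nearly all actives have a fitted effect of over 15% in size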
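Inhibition scored from the CFP 486 nm/YFP 530 nm FRET ratio 45 min after adding 0.125 microM importin beta to 50 nM Rango biosensor preincubated 5 min with compound (room temperature, PBS with DTT, Tween-20, BSA). No-importin wells as positive control.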
Numbers without * were called inactive; ? = inconclusive; nt = no result given; & = joins results of further samples.

Fields: GLA inh pH 4.5	Rango release inh	miR-21 FLuc	Rango-impB inh
> O=c1[nH]c2cccc(Cl)c2n(CCNc2ncc(C(F)(F)F)cc2Cl)c1=O
→ 6	4%	11%	3.4%
> N#Cc1ncn(-c2ccc(Oc3ccccc3)cc2)c1N
→ 1	-1%	4%	-1.2%
> CCOc1ccccc1NC(=O)c1ccc2nccnc2c1
→ -8	-8%	-4%	1.1%
> CC(=O)N1CCN(S(=O)(=O)c2cccc(C(=O)NNC(=O)Cn3nc(C)cc3C)c2)CC1
→ nt	-9%	nt	11%
> CCOC(=O)c1ccccc1NC(=O)c1ccccc1NS(C)(=O)=O
→ -7	-9%	-3%	-2.0%
> Cc1cccc2cc(CN(Cc3ccco3)C(=O)c3ccco3)c(=O)[nH]c12
→ nt	2%	0%	-0.3%
> Cc1ccc(C(=O)N/C(=C/c2cccs2)C(=O)NCc2ccco2)cc1
→ 7	-16%	-9%	-0.1%
> O=C(NCc1ccco1)C12CN(Cc3ccccc3)CC1C(c1ccc([N+](=O)[O-])cc1)=NO2 (stereo unspecified)
→ -5	-8%	4%	1.8%
> CCOC(=O)N1CCC(NC(=O)c2oc3c(F)cccc3c2C)CC1
→ nt	14%	-54%	-1.8%
> Cc1csc(=O)n1CC(=O)OCc1nnc(-c2ccc(Cl)cc2)o1
→ nt	-9%	nt	0.6%
> CCCCNc1cc(=O)oc2ccccc12
→ -7	-9%	-3%	2.8%
> COc1cccc(OCc2cc(C(=O)N3CCN(c4ccccc4OC)CC3)no2)c1
→ nt	19%	-84%	5.9%
> Cc1cc(C(=O)CSc2nnc(-c3ccco3)o2)c(C)n1-c1ccc2c(c1)OCCO2
→ 2	3%	2%	-2.5%
> COc1cc(OC)c(OC)cc1/C=N/Nc1ncnc2c1[nH]c1ccccc12
→ 18	-25%	-14%	?
> CCOc1ccc(N2CC(C(=O)Nc3ccc(F)cc3F)CC2=O)cc1 (stereo unspecified)
→ -4	6%	2%	0.4%
> Cc1cc(=O)[nH]c2ccc(S(=O)(=O)Nc3ccc(O)cc3)cc12
→ nt	-8%	-9%	-3.2%
> CC(OC(=O)c1ccc(NS(=O)(=O)c2ccc3[nH]c(=O)[nH]c3c2)cc1)C(=O)Nc1ccc(Cl)cc1 (stereo unspecified)
→ -3	6%	-1%	0.1%
> O=C(c1ccc2nc[nH]c2c1)N1CCc2ccccc2C1
→ 1	1%	-33%	-1.6%
> CCCCN=Cc1c(C)[nH]n(-c2ccccc2)c1=S
→ 6	22%	-1%	?
> CCOc1ccc(C(=O)OC2CCN(C)CC2)cc1
→ 6	-6%	-12%	3.3%
> O=C(OC(C(=O)NCc1cccs1)c1ccccc1F)c1ccco1 (stereo unspecified)
→ -11	2%	-5%	2.7%
> COc1ccc(C(=O)C2CCCN(Cc3ccc4nonc4c3)C2)c(OC)c1 (stereo unspecified)
→ 1	10%	1%	-2.9%
> Cc1cc2c(SCC(=O)Nc3cccc(O)c3)ncnc2s1
→ nt	0%	nt	?
> COc1ccc(CCNC(=O)[C@H](C)NC(=O)[C@@H]2CSC3c4ccccc4C(=O)N32)cc1 (stereo partly specified)
→ nt	-1%	2%	1.0%
> Cc1cc(C(=O)NCCCOC(C)C)c2ccccc2n1
→ 1	1%	0%	-8.1%
> Cc1c(C)c2ccc(OCC(=O)N3CCC[C@@H]3C(=O)O)c(C)c2oc1=O
→ nt	-11%	2%	3.7%
> COc1ccc(Cn2nnnc2C(c2ccccc2Cl)N2CCC(C(N)=O)CC2)cc1 (stereo unspecified)
→ -20	1%	-5%	0.2%
> COC(=O)c1ccc(NC(=O)Cc2ccccc2)cc1
→ 4	-1%	-33%	-3.3%
> COc1ccc(NC(=O)CCN2CCCCCC2)cc1
→ -3	7%	-3%	?
> CCN1C(=O)c2ccccc2S(=O)c2ccc(C(=O)N3CCN(C(=O)c4ccco4)CC3)cc21 (stereo unspecified)
→ 3	-2%	-5%	-1.3%
> Cc1ccc(N2CC(C)Cn3c2nc2c3c(=O)n(CC(=O)OCc3ccccc3)c(=O)n2C)cc1C (stereo unspecified)
→ 3	14%	-5%	-3.1%
> COc1cccc(CN(C)C(=O)C2CC(=O)N(c3ccc4c(c3)OCCO4)C2)c1 (stereo unspecified)
→ nt	-10%	nt	7.5%
> COc1ccc(/C(C)=N/NC(=O)CNC(=O)c2ccco2)cc1
→ nt	-14%	-1%	-0.3%
> Cc1nc(N2CCOCC2)sc1C(=O)NN
→ 9	-10%	-8%	-7.0%
> CCOc1ccc(CNC(=O)CCC(=O)N2CCSc3ccccc32)cc1
→ nt	-1%	7%&0%	2.7%
> CCc1cc2c(=O)n(-c3ccc(Br)cc3)cnc2s1
→ 0	-21%	-44%	-5.1%
> CC(C)Cc1ccc(CN2CCC(n3nccc3NC(=O)C3CCCC3)CC2)cc1
→ nt	1%	15%	-0.4%
> Cc1ccc(NC(=O)CN(C)CC(=O)Nc2sc3c(c2C(N)=O)CCC3)cc1
→ nt	-10%	-14%	-3.0%
> COc1cccc(N=Cc2c[nH][nH]c2=O)c1
→ -13	2%	-17%	0.9%
> CCCOc1ccc(-c2nnn(CC(=O)Nc3cccc(C(=O)OC)c3)n2)cc1
→ 5	2%	1%	-3.8%
> COc1ccccc1CNC(=O)C1CCN(C(=O)[C@@H]2Cc3ccccc3CN2)CC1
→ nt	25%	-2%	-3.5%
> COc1cc2c(cc1OC)/C(=C/C(=O)c1ccc(C)cc1)NCC2
→ nt	?	-36%	?
> CCCn1c(=O)c2ccccc2n2c(SCc3nc4ccccc4s3)nnc12
→ -6	-6%	-45%	-3.8%
> c1ccc(N2CCOCCOCCOCCOCC2)cc1
→ 5	-10%	0%	0.1%
> COc1cc(C(=O)NCCc2ccccc2)ccc1OCC(=O)N1CCOCC1
→ nt	3%	nt	-0.1%
> Cc1cccc(/C=C(\C(=O)C(=O)O)c2ccc3ccccc3n2)c1
→ 8	?	-56%	?
> COc1ccc(CCNC(=O)CNC(=O)Cn2ccc3ccccc3c2=O)cc1OC
→ 2	-7%	-3%	-0.3%
> C[C@H]1COC(=O)[C@H](Cc2ccc(F)cc2)CC/C=C/C[C@@H](CC(=O)N[C@@H](CO)Cc2ccccc2)C(=O)N1
→ nt	18%	nt	-6.5%
> CC(=O)N[C@H]1[C@H](Oc2ccc3c(c2)CCC2C3CC[C@]3(C)C(=O)CCC23)O[C@H](CO)[C@@H](O)[C@@H]1O (stereo partly specified)
→ nt	5%	-4%	0.8%
> O=C(O)c1cccc(Nc2nc3ccccc3nc2NS(=O)(=O)c2cccs2)c1
→ nt	-9%	4%	-0.2%
> O=C(Nc1ccc2c(c1)OCCO2)C1CCN(C(=O)c2ccc([N+](=O)[O-])cc2)CC1
→ 4	9%	-11%	1.6%
> Oc1ccc(-n2cccc2/C=N/n2cnnc2)cc1
→ 6	7%	-2%	5.1%
> CCc1c(O)c(/C(C)=N\O)c(=O)n(-c2ccccc2)c1-c1ccccc1
→ -7	0%	-8%	4.4%
> COc1cccc(C(=O)NCC(=O)NCc2cc(=O)n(C)c(=O)n2C)c1
→ nt	14%	3%	-0.3%
> CNC(=O)c1ccsc1NC(=O)CN1C(=O)CCC1=O
→ 9	1%	9%	0.0%
> CCOC(=O)Cc1nn(C)c(=O)c2ccccc12
→ -2	-8%	0%	-0.9%
> O=C(CSc1ccc(Cl)cc1)Nc1cccc(-c2nnc(-c3ccco3)o2)c1
→ 1	0%	-25%	3.0%
> CC(C)C(=O)NC(=O)COC(=O)/C=C/c1cccs1
→ -18	9%	0%	-1.1%
> O=C(NC(=O)c1ccccc1Cl)Nc1ccc(-c2cnco2)cc1
→ -8	8%	-30%	-0.4%
> CCCC(=O)Nc1ccc(N2CCN(C(=O)c3cc4ccccc4o3)CC2)cc1
→ nt	27%	4%	-0.7%

(cont.)
Fields: GLA inh pH 4.5	Rango release inh	miR-21 FLuc	Rango-impB inh
> Cc1ccc(NC(=O)CCC(=O)N/N=C/c2cccs2)cc1C
→ 10	-7%	-18%	2.6%
> CSc1ccc(S(=O)(=O)Nc2ccc(NC(C)=O)cc2)cc1
→ 0	12%	0%	-0.4%
> O=C(c1ccc2c(c1)OCO2)N1CCC2(CC1)Oc1ccc(Cl)cc1C(=O)C21CC(c2ccccc2)=NO1 (stereo unspecified)
→ 5	-2%	-8%	0.8%
> CCC(=O)c1ccc(OCC(=O)OCC(=O)N(CCC#N)c2ccc3c(c2)OCCO3)cc1
→ nt	-1%	nt	-3.2%
> CC(C)NC(=S)NC(=O)c1ccc(Cl)cc1Cl
→ 4	-23%	-21%	2.6%
> CC(=O)c1cc(CN2CCC(C(=O)Nc3ccc(-n4nc(C)cc4C)cc3)CC2)cs1
→ nt	9%	nt	-2.5%
> COCCC(=O)N1CCC(C(=O)Nc2ccc(Oc3ccccc3)nc2)CC1
→ nt	6%	-24%	1.0%
> Cc1nc(N)sc1Cc1ccc2c(c1)OCO2
→ -5	-10%	-12%	-6.0%
> COC(=O)c1sc(S(=O)(=O)NCCC(=O)O)c(C(=O)OC)c1C
→ -9	-1%	0%	0.7%
> C/C(=N\NC(=O)c1cccc(S(=O)(=O)N2CCCC2)c1)c1ccco1
→ 4	-1%	-9%	-1.4%
> Cc1ccsc1/C=C1\SC(N)=NC1=O
→ -5	2%	-39%	4.9%
> O=C(/C=C/c1ccccc1)N/C(=C/c1ccccc1)C(=O)N1CCCCC1
→ -1	?	0%	-1.0%
> O=[N+]([O-])c1c(Nc2ccccc2)ccc2nonc12
→ -6	-7%	-17%	3.7%
> S=c1[nH]nc(-c2ccncc2)n1/N=C/c1cn(-c2ccccc2)nc1-c1ccc(Cl)cc1
→ 2	-8%	-6%	-2.5%
> C=CCCC(=O)Nc1nc(C)c(-c2csc(Nc3ccc(Cl)cc3Cl)n2)s1
→ -1	-8%	9%	1.7%
> CCC(C)CCN1C(N(C)C)=NC[C@@H]1C (stereo partly specified)
→ nt	-6%	nt	2.7%
> CCn1cc(C(=O)OCC(=O)Nc2ccc(C(C)C)cc2)c(=O)c2ccc(C)nc21
→ -8	-14%	-9%	0.9%
> Oc1ccc(/C=N/NC2=NCCCCC2)cc1
→ -5	9%	-5%	-2.4%
> CCOC(=O)C1CCN(S(=O)(=O)c2ccc3c(c2)NC(=O)C(C)C(=O)N3)CC1 (stereo unspecified)
→ nt	0%	0%&-5%	-1.9%
> CN1C(=O)CSc2ccc(NC(=O)N3CCN(c4ccccc4)CC3)cc21
→ -7	4%	3%	0.5%
> O=C(c1ccc(Br)o1)N1CCN(c2ccccc2F)CC1
→ -5	-24%	-6%	-2.0%
> Cc1ccc(N(Cc2cc(=O)[nH]c3ccccc23)C(=O)CCl)cc1
→ nt	-11%	?	-0.7%
> C=CCn1c(=O)c2ccccc2n2c(SCC(C)=O)nnc12
→ nt	0%	2%	-3.6%
> Cc1cc(NC(=O)C(C)(C)C)no1
→ 2	0%	-4%	0.1%
> O=C(CO/N=C/c1c(Cl)cccc1Cl)NNC(=O)c1ccc(Cl)cc1
→ -20	-9%	-6%	-1.7%
> O=C1COc2ccc(-c3n[nH]c(=O)c4ccccc34)cc2N1
→ 14	-1%	0%	1.2%
> CC(C)(C)c1ccc(C(=O)NCc2ccco2)cc1
→ nt	6%	nt	-2.6%
> CN=c1scc(-c2ccccc2F)n1/N=C/c1ccc[nH]1
→ -11	-22%	?	?
> Cc1cc(C)cc(-c2nnc(SCC(=O)NC3CC3)o2)c1
→ nt	2%	nt	0.4%
> COc1cc(NC(=O)CN2C(=O)C(C)N(c3ccc(C)cc3)C2=O)cc(OC)c1 (stereo unspecified)
→ nt	4%	nt	0.4%
> Cn1ncc(C#N)c1NC(=O)C1CC(c2ccc(Cl)c(Cl)c2)=NO1 (stereo unspecified)
→ 3	15%	-2%	-0.5%

By substructure: the compounds so far containing a nitro group on carbon
Fields: GLA inh pH 4.5	Rango release inh	miR-21 FLuc	Rango-impB inh
> O=C(NCc1ccco1)C12CN(Cc3ccccc3)CC1C(c1ccc([N+](=O)[O-])cc1)=NO2 (stereo unspecified)
→ -5	-8%	4%	1.8%
> O=C(Nc1ccc2c(c1)OCCO2)C1CCN(C(=O)c2ccc([N+](=O)[O-])cc2)CC1
→ 4	9%	-11%	1.6%
> O=[N+]([O-])c1c(Nc2ccccc2)ccc2nonc12
→ -6	-7%	-17%	3.7%

An excerpt; rates above refer to the full screens.
